Screens as filed in PubChem BioAssay.
N370S GC: inhibitors or activators of N370S glucocerebrosidase for Gaucher disease. P04062. N370S GC spleen homogenate, 4MU-glucoside fluorescence. Potency, µM (highest dose often 59.4 µM), for the others: top-dose activity change, negative = inhibition, hits mostly inhibitors. hit rate 0.092% among 330,000. AID 2101; active means well fitted inhibition curve with a large enough effect; inconclusive means small, poorly fitted or top-dose-only effect, or effect the other way, or another doubt; inactive means no such curve, though single readings can be large or run the other way;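 further: 0% = full enzyme activity and -100% = no enzyme basal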
* marks the source's active call; other numbers are inactive results; ? = inconclusive; & = joins results of further samples; [ ] = remark or other dose. Potency means the concentration at half of the fitted maximal effect. These rows are one share of the data, and most or all hits are left out here.

N370S GC | SMILES
-21% | c1ccc(CC2CNc3ccccc3CN2)cc1 (stereo not given)
23% | Cc1cccc(C)c1NC(=O)CSCCO
12% | Cc1cc(NC(=O)Nc2ccc(Cl)c(Cl)c2)n(-c2ccccc2)n1
-12% | C/C(=N\NC(=O)c1ccc([N+](=O)[O-])cc1)c1cc2ccccc2oc1=O
-5% | COC(=O)c1ccc(N2CCN(S(=O)(=O)c3ccccc3)CC2)c([N+](=O)[O-])c1
-1%&4% | CC(C)n1cnc2c(NCc3ccccc3)nc(NCCO)nc21
? | Cc1cc(C)n(-c2nc(SCCN(C)C)c3c4c(sc3n2)CCCC4)n1
-13% | COC(=O)/C(=C\c1ccc2c(c1)c1ccccc1n2C)NC(=O)c1ccccc1
1% | COc1cccc(C(=O)OCn2nnc3ccccc3c2=O)c1
5% | Oc1c(Cl)cc(Cl)cc1CNn1cnnc1
28% | c1ccc(-c2ccc(-c3ccccn3)s2)nc1
1% | CCOC(=O)c1sc(C)c2c(=O)n(Cc3ccc(Cl)cc3)cnc12
1% | O=C1c2cccnc2C(=O)N1Cc1ccc(S(=O)(=O)N2CCN(c3ccc(Cl)cc3)CC2)cc1
8% | O=C(CSc1nc2ccccc2n1CC(=O)N1CCCC1)NCc1ccc2c(c1)OCO2
3% | Cc1noc(C)c1S(=O)(=O)Nc1ccccc1Cl
-2% | COc1ccc(CCCC(=O)NC2CCCCC2C)c(C)c1 (stereo not given)
11% | CCOc1cc(-c2conc2N)cc(OCC)c1OCC
-1% | COC(=O)CNC(=O)Cn1cnc2sc(C)c(S(=O)(=O)N3CCC(C)CC3)c2c1=O
1% | CCC(C)c1ccccc1NS(=O)(=O)c1cnn(CC)c1 (stereo not given)
-7% | CC(C)OC(=O)C1CC(C)(O)C(=O)C(C(=O)OC(C)C)C1c1ccc([N+](=O)[O-])cc1 (stereo not given)
27% | O=C(NCc1ccco1)/C(=C\c1cccs1)NC(=O)c1ccsc1
-4% | Cc1ccc(C(=O)Nc2ccc3c(c2)OCO3)cc1NC(=O)c1ccco1
-10% | O=S(=O)(NCC(c1cccnc1)N1CCN(c2ccc(F)cc2)CC1)c1ccc(F)cc1 (stereo not given)
9% | CCCn1c(=O)c(C(=O)Nc2ccccc2C(=O)OC)c(O)c2ccccc21
7% | O=C(O)CCN1C(=O)c2ccc(Oc3ccc4c(c3)C(=O)N(CCC(=O)O)C4=O)cc2C1=O

Some of the entries so far, as tab-separated lines.
Compound	N370S GC
O=S(=O)(NCC(c1cccnc1)N1CCN(c2ccc(F)cc2)CC1)c1ccc(F)cc1 (stereo not given)	-10%
CCCn1c(=O)c(C(=O)Nc2ccccc2C(=O)OC)c(O)c2ccccc21	9%

Other entries.
N370S GC | SMILES
4% | O=C(Nc1ccc(Cl)cc1)N1CCc2[nH]c3ccccc3c2C1
-4% | CCCCn1c(N)c(N(CCOC)C(=O)CSCc2ccccc2C)c(=O)[nH]c1=O
5% | O=C(C1CCC(=O)N1Cc1ccccc1Cl)N1CCN(c2ccc(F)cc2)CC1 (stereo not given)
4% | Cc1ccc(CNC(=O)C(=O)NCC(c2ccco2)N2CCOCC2)cc1 (stereo not given)
7%&4% | COC(=O)C1=C(C)N(Cc2ccco2)C(=O)N[C@H]1c1ccccc1
6%[12.8 µM] | O=C(c1ccc(Cl)s1)N1CCCC1
-21% | C=CCN(C(=O)CC(NC(C)=O)c1ccccc1)c1nc(-c2ccc(S(C)(=O)=O)cc2)cs1 (stereo not given)
-3% | COc1ccccc1C(=O)NNC(=O)c1ccc(NC(=O)C(C)C)cc1
1% | Cc1occc1-c1n[nH]c(=S)n1CC(C)C
9% | CN(C(=O)COc1ccccc1C(=O)NCCc1ccccc1)c1ccccc1
0% | O=C(CCOc1cccc(Br)c1)Nc1ccc(F)c(S(=O)(=O)N2CCOCC2)c1
9% | CC(C)C1CC(CCN)(Cc2ccccc2)CCO1 (stereo not given)
-3% | Cc1cc(C)n(C(=O)c2cccc(S(=O)(=O)N3CCCC3)c2)n1
-8% | CCCCNC(=O)/C(=C/c1ccccc1)NC(C)=O
20% | COc1ccc(OC)c(NC(=O)c2cc3sccc3n2C)c1
-10% | O=C(COC(=O)c1n[nH]c2ccccc12)Nc1cccc(S(=O)(=O)N2CCOCC2)c1
-30% | CN(C(=O)c1cccc(S(=O)(=O)N2CCCCC2)c1)C1CCS(=O)(=O)C1 (stereo not given)
11% | CCOC(=O)c1ccc(NC2c3ccccc3C(=O)N2c2ccccn2)cc1 (stereo not given)
10% | CS(=O)(=O)N1CCN(C(=O)c2ccc(Br)s2)CC1
-7% | COc1cccc(CCc2nnc(CCC(=O)NCCc3cccc(C)n3)o2)c1
-3% | CCCC1=Nc2cc(C(=O)N3CCN(c4ccccn4)CC3)ccc2Sc2ccc(C)cc21
-3% | COC(=O)c1ccccc1NC(=O)Cn1nnc(-c2ccc(OC)cc2)n1
-1% | COc1ccccc1C(=O)N1CCC(C(=O)c2ccc(F)cc2)CC1
-8% | COc1ccc(N2CCN(C3CC(=O)NC3=O)CC2)cc1 (stereo not given)
-12% | COc1ccc(-n2nc(C(=O)NCC(=O)Nc3cc(OC)ccc3OC)c3ccccc3c2=O)cc1
1% | COc1ccc(OC)c(-c2csc(NC(=O)Cc3ccc(OC)c(OC)c3)n2)c1
9% | CCc1nccn1CCC(=O)N1CCCC(N2CCN(c3ccccc3C)CC2)C1 (stereo not given)
8% | Cc1ccc(NC(=O)COC(=O)CNC(=O)c2ccc(Br)cc2)c(C)c1
5% | CC(C)n1c(NCCc2ccccc2)nc2c1c(=O)n(C)c(=O)n2C
2% | COC(=O)c1noc(-c2ccc(C)cc2)n1
3% | Cc1cc(C)cc(NC(=O)c2ccc(CN3CCc4ccccc4C3)cc2)c1
1% | Cc1n[nH]c(C)c1-c1nc2ccccc2[nH]1
-3% | CCC(OC(=O)c1nsc(Cl)c1Cl)C(=O)NCCOC (stereo not given)
3% | Cc1cc(/C=N/n2cnnc2)c(C)n1-c1cccc(Cl)c1
-14% | O=C(Cc1ccc(Br)cc1)N1CCN(c2ccc(F)cc2)CC1
2% | CN1CCCN(C(=O)c2ccc(Br)cc2)CC1
-13% | COc1ccc(Cn2nnnc2C(c2ccc(N(C)C)cc2)N2CCC(C)CC2)cc1 (stereo not given)
3% | O=C(CSc1ccc(-c2ccncc2)nn1)c1ccccc1
6% | Cc1sc(N2C(=O)C3C(C2=O)[C@H]2C=C[C@@H]3C2)c(C#N)c1C (stereo not given in full)
-2% | O=S(=O)(c1cccc(S(=O)(=O)N2CCC(Cc3ccccc3)CC2)c1)N1CCOCC1
0% | Cc1ccc(C)c(CNS(=O)(=O)c2c(C(=O)N3CCCC3)c(C)n(C)c2C)c1
-1% | NC(=O)C1=CN(Cc2ccc(Cl)cc2)CCC1C(F)(F)F (stereo not given)
-20% | O=C(NCc1ccc(F)cc1)C(c1ccccc1)N(C(=O)c1csnn1)C1CCCC1 (stereo not given)
6% | Cc1cc(C)cc(NC(=O)CSc2ccc(-c3ccco3)nn2)c1
18% | O=C(NCc1ccccc1)c1cc(=O)nc2sc(-c3ccccc3)nn12
-21% | Nc1ccccc1C(=O)NNC(=O)C(=O)/C=C(\O)c1ccccc1
-21% | Cc1ccc(C)c(OCC(=O)Nc2cccc(S(=O)(=O)NC3=NCCCCC3)c2)c1
0% | COc1cc(OC)cc(C(=O)NCCCNC(=O)c2ccccn2)c1
-5% | N#CC(c1nc2ccccc2nc1OCCO)S(=O)(=O)c1ccccc1 (stereo not given)
13% | Cc1cc(C=O)c(C)n1-c1cc(C(F)(F)F)ccc1N1CCOCC1

Further results:
N370S GC | SMILES
-3% | Nn1c(SCc2cccc(Br)c2)nnc1-c1ccncc1
4% | COC(=O)c1ccccc1NC1=C/C(=N\S(=O)(=O)c2ccc(C(=O)O)cc2)c2ccccc2C1=O
-2% | CC1CCN(CC(=O)c2cccs2)CC1
-23% | Cc1c(C)n(C(=O)CN2CCC(C(N)=O)CC2)c2ccccc12
-2% | N#Cc1c[nH]n2c(=O)c3c(nc12)CCC3
-5% | O=C(NCCS(=O)(=O)NCc1ccc2c(c1)OCO2)c1ccccc1
-6% | Cc1nc2ccccc2c(=O)n1-c1ccc(NS(=O)(=O)c2ccc(F)cc2)cc1
5% | CC(=C/c1ccccc1)/C=N/Nc1nc(N2CCOCC2)nc(N2CCOCC2)n1
-1% | Nn1c(SCC(=O)Nc2ccccc2)nnc1-c1cccnc1
13% | COCC(C)n1c(C)cc(C(=O)CSc2nnnn2-c2ccc(O)cc2)c1C (stereo not given)
? | COc1cccc(NC(=O)CSc2nc3ncc(Br)cc3[nH]2)c1
-18% | CCOc1ccc(S(=O)(=O)N(CC)CC(=O)NCc2ccco2)cc1C
-5% | CCOc1cccc(N2C(=O)CC(NNC(=O)c3ccc(Br)o3)C2=O)c1 (stereo not given)
12% | COc1ccccc1CNC(=O)c1ccc2c(=O)n3c(nc2c1)CCCCC3
9% | CC(C(=O)O/N=C(\N)c1ccccn1)c1ccc([N+](=O)[O-])cc1 (stereo not given)
7% | COc1ccc(S(=O)(=O)N(C)CC(=O)Nc2ccccc2SC)cc1
-18% | C(#Cc1ccc2c(c1)COc1c3ccccc3nn1-2)c1ccccc1
-2% | Cc1ccc(C(=O)COC(=O)CN2C(=O)C3C4C=CC(C4)C3C2=O)cc1[N+](=O)[O-] (stereo not given)
-16% | COc1ccc(NC(=O)CN(C)S(=O)(=O)c2ccc3c(c2)CC(C)N3C(C)=O)cc1OC (stereo not given)
12% | CC(C)(C)c1csc(SCC(=O)Nc2ccc(Cl)cn2)n1
4% | COC(=O)/C=C/CSC1=N/C(=C/c2ccc(-n3cncn3)cc2)C(=O)N1
13% | CCc1ccc(NC(=O)c2ccccc2NC(=O)C2CCCO2)cc1 (stereo not given)
-25% | CCCOP(=O)(OCCC)C(NC(=O)C(C)(C)C)c1ccccc1 (stereo not given)
-5% | CC1(c2ccc3noc(-c4cccc(F)c4)c3c2)OCCO1
4% | O=C(NCc1ccc2c(c1)OCO2)c1ccc2c(=O)n(C3CCCC3)c(=O)[nH]c2c1

Reformatted with each value named: part of the list above.
> Cc1ccc(C(=O)COC(=O)CN2C(=O)C3C4C=CC(C4)C3C2=O)cc1[N+](=O)[O-] (stereo not given)
  N370S GC: -2%

> COc1ccc(NC(=O)CN(C)S(=O)(=O)c2ccc3c(c2)CC(C)N3C(C)=O)cc1OC (stereo not given)
  N370S GC: -16%

> CC(C)(C)c1csc(SCC(=O)Nc2ccc(Cl)cn2)n1
  N370S GC: 12%

> COC(=O)/C=C/CSC1=N/C(=C/c2ccc(-n3cncn3)cc2)C(=O)N1
  N370S GC: 4%

Carrying on:
N370S GC | SMILES
-2% | COc1ccccc1CC(=O)Nc1ccc2nc(C)sc2c1
-8% | COCC(C)NC(=O)CSc1ncnc2sc(-c3ccccc3)cc12 (stereo not given)
-8% | CN(C(=S)NC(=O)c1ccccc1Br)C1CCCCC1
-22%[2.35 µM] | Nc1cc(C(=O)OCC(=O)NCc2ccco2)ccc1Cl
-2% | Cn1c(=O)n(C)c2cc([N+](=O)[O-])c(N3CCN(CCO)CC3)cc21
-9%[12.8 µM] | CC(C)CN1C=C2C(=O)C(C)(OC(=O)C3CCCC3)C(=O)C=C2C=C1c1ccsc1 (stereo not given)
-9% | CCn1nnnc1-c1ccc(OC)c(S(=O)(=O)N2CCCCC2)c1
13% | COc1ccc(CCNC(=O)CO/N=C/c2cc3c(cc2Br)OCO3)cc1OC
-8% | CCc1ccc(OCC(=O)N(C)C2CCS(=O)(=O)C2)cc1 (stereo not given)
-4% | O=C(/C=C(\c1ccccc1)n1cncn1)c1ccccc1
10% | COc1ccc2c(c1)C(C)=CC(C)(C)N2S(=O)(=O)c1ccc(Br)cc1
-3% | COc1ccc(C(=O)NC(=S)Nc2ccc(NC(=O)c3ccco3)cc2)cc1[N+](=O)[O-]
3%[2.35 µM] | CC(=O)c1cccc(NC(=O)c2ccco2)c1
-25% | COc1ccccc1N1CCN(C(=O)CSc2nc3ccccc3[nH]2)CC1
3% | CCOC(=O)CSC1=C(C#N)C(c2ccc(OC)cc2)C2=C(CC(C)(C)CC2=O)N1 (stereo not given)
4% | CCN(c1ccccc1)S(=O)(=O)c1ccc(OCC(=O)Nc2cc(C)on2)cc1
2% | Cc1c(C(c2cccc([N+](=O)[O-])c2O)c2c(C)n(C)n(-c3ccccc3)c2=O)c(=O)n(-c2ccccc2)n1C
1%[21.6 µM] | Cc1nnc(SCC2=C(C(=O)O)N3C(=O)[C@@H](NC(=O)Cn4cnnn4)[C@@H]3SC2)s1
-14% | COc1ccccc1NC(=O)COC(=O)/C=C/c1ccc2c(c1)OCO2
-4% | CCOc1cc(C2/C(=C(/O)c3ccc(S(=O)(=O)N4CCCCC4)cc3)C(=O)C(=O)N2CCOC)ccc1O (stereo not given)
24% | CCCn1c(NC(=O)c2ccco2)nc2ccccc21
4% | Cc1ccc(N(C(C)C(=O)Nc2cccc(N(C)S(C)(=O)=O)c2)S(C)(=O)=O)cc1 (stereo not given)
26% | CCOC(=O)CCCSc1nnc(CCCCCN2C(=O)c3cccc4cccc(c34)C2=O)o1
9% | CC(=NCc1ccco1)c1c(O)n(C2CCCCC2)c(=O)[nH]c1=O
-5% | Cc1ccc(CNC(=O)C2CCC(=O)N(CCc3cccc(F)c3)C2)cc1 (stereo not given)
7% | Cc1cccc(-c2nnc(SCc3ccccc3)o2)c1
-1% | COC(=O)[C@@H](Cc1c[nH]c2ccccc12)NC(=O)CNC(=O)c1ccccc1OC
3% | CN(C)c1cccc2c(S(=O)(=O)Nc3ccccn3)cccc12
-8% | COc1ccccc1-c1nnc(SCC(=O)OC(C)C)o1
0% | CCOC(=O)c1[nH]c(C)c(C(=O)OCC(=O)N(CC)C2CCS(=O)(=O)C2)c1C (stereo not given)
